Compound activity: PubChem, Emory University Molecular Libraries Screening Center
Measles inh – inhibitors of measles virus growth in infected cells; infected Vero cells, GFP fluorescence, 64 h; active compounds read low; z-score (concentration not given with the values); 0.1% of 33,000 active;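 active = z-score under -3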;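 also: score is relative to mean and SD of the compound wells of a plate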
Starred values were filed as active, the others as inactive. Only part of the results is shown; the hit share may differ from the screen's.

SMILES	Measles inh
CC1=C(C(=O)OCC2CCCO2)C(c2cc3c(cc2Br)OCO3)C2=C(CC(C)(C)CC2=O)N1 (stereo not drawn)	0.58
COc1ccc(C)cc1Nc1ccc(C(=O)O)cc1[N+](=O)[O-]	-0.18
CCOC(=O)C1=C(C)NC2=C(C(=O)CCC2)C1c1ccc(C(C)C)cc1 (stereo not drawn)	0.38
O=C(CC1Nc2c3ccccc3nc(=S)n2C1=O)NCc1cccs1 (stereo not drawn)	1.3
Cc1ccc(C)c(Oc2coc3cc(OC(=O)C(C)C)ccc3c2=O)c1	-0.16
O=C1CCC(=O)N1c1ccc(NCc2cccc3ccccc23)c([N+](=O)[O-])c1	1.9
CCC(=O)NCCc1nc2ccccc2n1Cc1cc(C)ccc1C	-0.58
Cc1cccc(N2C(=O)CC(N3CCN(CC=Cc4ccccc4)CC3)C2=O)c1 (stereo not drawn)	-0.38
CCCCNC(=O)c1cc(Nc2ccc(OCC)cc2)nc2ccccc12	-0.58
CCOc1ccc(C(=O)Nc2ccc3nn(-c4ccc(OC)cc4)nc3c2)cc1Br	0.2
CSCCOC(=O)C1=C(C)NC(=O)NC1c1ccc2ccccc2c1 (stereo not drawn)	-1.9
COC(=O)C1=C(C)NC2=C(C(=O)CC(C)(C)C2)C1c1cccc(O)c1 (stereo not drawn)	0.27
O=C(Nc1ccc(Cl)cc1)c1nc2nc(-c3cccs3)cc(C(F)(F)F)n2n1	-0.39
COc1ccc2ccccc2c1C1NN=C(c2ccc(C)cc2)S1 (stereo not drawn)	0.81
Cc1ccc2nc3c(cc(C(=O)NCc4ccco4)c(=N)n3Cc3ccco3)c(=O)n2c1	-1.1
CC(C)Cn1c(N2CCCCC2)nc2c1c(=O)[nH]c(=O)n2C	1.2
CC(=O)c1cccc(Nc2nc(-c3sc(NC(=O)c4ccccc4)nc3C)cs2)c1	0.4
Cc1ccc(NC(=O)CSc2nccn2-c2cccc(C)c2C)c(C)c1	0.53
O=C(CC1Nc2c3ccccc3nc(=S)n2C1=O)NCc1ccccc1 (stereo not drawn)	0.21
Cc1ccccc1Cn1nc(C)c(NC(=O)c2cc(-c3ccc(Cl)cc3)on2)c1C	1
CC(=O)N1c2ccc(S(=O)(=O)Nc3ccc(Br)cc3C)cc2CC1C (stereo not drawn)	0.79
Cc1cccc(-n2ccnc2SCC(=O)Nc2nccs2)c1C	-0.1
COc1ccc(-c2nc3ccccc3o2)cc1NC(=O)COc1ccccc1	0.16
CCOc1cc(C2C3=C(CC(C)(C)CC3=O)OC3=C2C(=O)CC(C)(C)C3)ccc1OCc1ccccc1	0.12
COc1ccc2oc(C)c(C(O)c3cc4ccccc4o3)c2c1 (stereo not drawn)	1.4
COc1ccccc1NCc1nc2ccccc2n1CCOc1ccccc1Cl	1.2
CCCCNS(=O)(=O)c1cc(C(=O)O)ccc1F	-0.94
CC(=O)N1CCc2cc(S(=O)(=O)CCC(=O)N3CCc4ccccc4C3)ccc21	0.01
O=C(NCc1ccccc1)c1cc(=O)[nH]c2ccc(S(=O)(=O)N3CCOCC3)cc12	0.28
Cc1c(NS(=O)(=O)c2ccc(C(C)(C)C)cc2)c(=O)n(-c2ccccc2)n1C	-0.69

A second format for some results above.
SMILES: O=C(CC1Nc2c3ccccc3nc(=S)n2C1=O)NCc1cccs1 (stereo not drawn)
- Measles inh: 1.3

SMILES: Cc1ccc(C)c(Oc2coc3cc(OC(=O)C(C)C)ccc3c2=O)c1
- Measles inh: -0.16

SMILES: O=C1CCC(=O)N1c1ccc(NCc2cccc3ccccc23)c([N+](=O)[O-])c1
- Measles inh: 1.9

SMILES: CCC(=O)NCCc1nc2ccccc2n1Cc1cc(C)ccc1C
- Measles inh: -0.58

Remaining list, next part
SMILES	Measles inh
Cc1c(C(=O)N2CCN(c3ccccc3F)CC2)sc2ncnc(N3CCCCC3)c12	-0.17
CC1(C)CC(CCNC(=O)c2ccccc2C(=O)O)(Cc2ccccc2)CCO1 (stereo not drawn)	-0.13
CC(=O)N1CCc2cc(S(=O)(=O)N3CCN(c4ccccc4Cl)CC3)ccc21	-0.9
O=C1NC(C(F)(F)F)(C(F)(F)F)N=C2SCCN12	-1.6
CCc1nc2ccccc2c(NC(=O)CNC(C)(C)C)c1C	1.2
Clc1ccc2[nH]c3ccccc3c2c1	-0.46
COc1ccc(C2C3=C(CCCC3=O)Nc3[nH]c(=O)[nH]c(=O)c32)cc1OC (stereo not drawn)	0.52
CSc1ccc(Cl)c(C(=O)Nc2ccc(Br)cn2)c1	-0.63
O=C1C2CC=CCC2C(=O)N1c1ccc(N2CCN(Cc3ccc(Cl)cc3)CC2)c([N+](=O)[O-])c1 (stereo not drawn)	-0.53
O=C(O)COc1ccc2c(c1)C(=O)c1cc(OCC(=O)O)ccc1-2	-0.38
O=C(NC1CCCC1)C(c1ccc(Cl)cc1)N1CCN(c2ccccc2)CC1 (stereo not drawn)	1.4
CCOC(=O)C1=C(C)NC(C)=C(C(=O)OCC)C1c1ccc(-c2cccc(Br)c2)o1	0.16
CCCOc1ccc(C(=O)Nc2ccc3oc(-c4ccc(C)cc4C)nc3c2)cc1	0.49
COCCOC(=O)C1=C(C)NC(=O)CC1c1cccc(Cl)c1 (stereo not drawn)	0.5
Cc1cc(NC(=O)COc2ccc(C(C)C)cc2)ccc1NC(=O)c1ccco1	-1.2
Cc1cc(C)c2c(c1)c(C)cc1nnnn12	1.1
COC(=O)c1ccc(CN2C(=O)C3CCCCC3C2=O)o1 (stereo not drawn)	-0.49
CN(C)C(=O)c1c(NC(=O)c2ccccc2F)sc2c1CCC2	-0.99
CCCCCn1c(CNC(=O)c2ccc(F)cc2)nc2ccccc21	-0.18
Cc1sc(NC(=O)C(Cc2ccccc2)Cc2ccccc2)c(C#N)c1C	0.15
COc1cc2c(cc1OC)C(c1ccc([N+](=O)[O-])cc1)CC(=O)N2 (stereo not drawn)	0.46
Cc1ccc(OCC(=O)Nc2cccc(-c3nc4ccccc4c(=O)o3)c2)cc1	-0.26
Cc1cccc(Nc2ccc([N+](=O)[O-])c3nonc23)c1C	-0.01
CCCn1c(=S)[nH]c2cc(C(=O)N3CCCC3)ccc2c1=O	-0.44
Cc1ccc(-c2nc(-c3ccccn3)no2)c(Cl)c1	-0.38
Cc1cccc(C)c1OCCCNCC1CCCO1 (stereo not drawn)	-0.6
COc1ccc(OC)c(NC(=O)c2nn(-c3ccc(OC)cc3OC)c(=O)c3ccccc23)c1	1.8
CCOC(=O)C1=NN(c2ccc(C)cc2)C2C(=O)N(c3ccc(Cl)cc3)C(=O)C12 (stereo not drawn)	-0.07
CC1=C(C(=O)Nc2ccc(C)cc2)C(c2cccc(Cl)c2)NC(=O)N1 (stereo not drawn)	-0.31
COc1ccc(OC)c(C2C(C(=O)c3ccccc3)N3c4ccccc4C=CC3C2(C#N)C#N)c1 (stereo not drawn)	0.84
O=C(c1ccc(SCCN2CCOCC2)c([N+](=O)[O-])c1)N1CCc2ccccc2C1	3
COc1ccc(-c2nc3cc(NC(=O)c4cccnc4)ccc3o2)cc1	-0.21
COc1cc(C(=O)Nc2ccc(NC(=O)c3ccc(Br)cc3)cc2)cc(OC)c1OC	0.18
c1ccc(Cn2c(CSc3nc4ccccc4o3)nc3ccccc32)cc1	0.21
CC1(C)CC(=O)C(C(=S)Nc2ccccc2)=C(NCc2ccc(Cl)cc2)C1	-2.2
CC1Cc2nc(SCC(=O)Nc3ccc(OC(F)(F)F)cc3)n(Cc3ccccc3)c(=O)c2S1 (stereo not drawn)	-1.9
COc1ccccc1OCC(O)Cn1c(C(F)(F)F)nc2ccccc21 (stereo not drawn)	-0.54
Cc1cccc(-n2nc3c(c2NC(=O)C2CC2)CS(=O)C3)c1C (stereo not drawn)	0.88
CCOc1ccc(N(C(C)C(=O)N2CCCCC2)S(C)(=O)=O)cc1 (stereo not drawn)	-0.57
O=C(O)c1ccc(COCC(F)(F)C(F)F)o1	1.7
Cn1c(=O)c2c(SCC(=O)N3CCCC3)nc(-c3ccc(F)cc3)nc2n(C)c1=O	-0.47
COc1ccccc1C(NC(C)=O)c1cc(Cl)c2cccnc2c1O (stereo not drawn)	-0.73
O=C(CSc1ncccn1)Nc1ccccc1C(=O)O	-0.28
CCOC(=O)c1ccc2c3c(onc13)-c1ccccc1C2=O	-0.85
COCCNC(=O)CN1C(=O)CSc2cc(S(=O)(=O)N3CCCCCC3)ccc21	-0.6

Three of the entries above in order of the Measles inh value, falling:
Compound	Measles inh
c1ccc(Cn2c(CSc3nc4ccccc4o3)nc3ccccc32)cc1	0.21
COCCNC(=O)CN1C(=O)CSc2cc(S(=O)(=O)N3CCCCCC3)ccc21	-0.6
CCOC(=O)c1ccc2c3c(onc13)-c1ccccc1C2=O	-0.85

Next part:
SMILES	Measles inh
Cc1cc(C)c(C#N)c(SCCS(=O)(=O)c2nc3ccccc3s2)n1	1.2
Cc1ccc(CCNC(=O)CCN2N=C(c3ccc(C)cc3)CCC2=O)cc1	-2.4
COc1ccccc1CNC(=O)Cn1cnc2sc(C)c(S(=O)(=O)N3CCC(C)CC3)c2c1=O	-0.1
COc1ccc(CNS(=O)(=O)c2ccc3oc(C(=O)O)c(C)c3c2)cc1	0.14
O=C(c1cc2ccccc2o1)N1CCN(c2ccc(Cl)cc2[N+](=O)[O-])CC1	-1.1
O=C(Nc1ccc(Br)cc1)C1C2C=CC3(O2)C1C(=O)N(C1CCCCCC1)C3C(=O)NC1CCCCC1 (stereo not drawn)	-0.95
CCC1(C)CC(CC(=O)O)(c2ccc(F)cc2)CCO1 (stereo not drawn)	-0.28
CCC1(CC)OC(c2ccc([N+](=O)[O-])o2)=Nc2ccc(Br)cc21	-0.74
Cc1ccc(-c2nc3ccccc3s2)cc1NC(=O)c1ncn[nH]1	-0.49
COc1ccc(C(C[N+](=O)[O-])c2c(C)[nH]c3ccccc23)cc1OC (stereo not drawn)	-0.58
CC(=O)c1ccc(N2CCN(C(=O)CN(C)S(=O)(=O)c3cccs3)CC2)cc1	-0.16
CC(=O)c1ccc(NC(=O)c2cc3nc4c(c(C(F)(F)F)n3n2)CCCC4)cc1	-0.68
CCOC(=O)c1nc(Nc2ccc(Br)cc2)c2ccccc2n1	-1.6
COc1ccc(OC)c(C(=O)c2ccc(C(=O)Nc3ccc(Br)c(C)c3)cc2)c1	-1.1
C1=C(c2ccc(-c3ccccc3)cc2)Nc2ncnn2C1c1cccs1 (stereo not drawn)	6.4

Of the compounds above, these contain a thiophene ring, fused or not:
SMILES	Measles inh
O=C(CC1Nc2c3ccccc3nc(=S)n2C1=O)NCc1cccs1 (stereo not drawn)	1.3
O=C(Nc1ccc(Cl)cc1)c1nc2nc(-c3cccs3)cc(C(F)(F)F)n2n1	-0.39
Cc1c(C(=O)N2CCN(c3ccccc3F)CC2)sc2ncnc(N3CCCCC3)c12	-0.17
CN(C)C(=O)c1c(NC(=O)c2ccccc2F)sc2c1CCC2	-0.99
Cc1sc(NC(=O)C(Cc2ccccc2)Cc2ccccc2)c(C#N)c1C	0.15
COc1ccccc1CNC(=O)Cn1cnc2sc(C)c(S(=O)(=O)N3CCC(C)CC3)c2c1=O	-0.1
CC(=O)c1ccc(N2CCN(C(=O)CN(C)S(=O)(=O)c3cccs3)CC2)cc1	-0.16
C1=C(c2ccc(-c3ccccc3)cc2)Nc2ncnn2C1c1cccs1 (stereo not drawn)	6.4

Next part.
SMILES	Measles inh
Cc1n[nH]c(=O)nc1NCc1ccccc1	-0.11
O=C(c1nn2c(c1Br)NC(c1cccs1)CC2C(F)(F)F)N1CCCCC1 (stereo not drawn)	-1.1
COc1ccc(COC(=O)C2=C(C)NC3=C(C(=O)CC(c4cccs4)C3)C2c2coc3ccccc3c2=O)cc1 (stereo not drawn)	0.12
O=c1[nH]cnc2nc(N3CCCCC3)[nH]c12	0.21
CCCCOC(=O)C1=C(C)NC2=C(C(=O)CC(C)(C)C2)C1c1cc2c(cc1[N+](=O)[O-])OCO2 (stereo not drawn)	-1.3
CC(C)(C)c1cc(Cl)c(O)c(N=Cc2cccc([N+](=O)[O-])c2O)c1	-1.6
COc1cc(-c2n(C)c3ccccc3[n+]2C)ccc1O	0.34
CC(C)Oc1cc2c(cc1[N+](=O)[O-])C=CC1(O2)N(C)c2ccccc2C1(C)C (stereo not drawn)	-0.47
COC(=O)C1=C(C(=O)OC)SC(=C2C(=S)C(C)(C)N(C(=O)COc3ccccc3)c3ccc(OC)cc32)S1	2.8
COc1ccc(C)cc1N/C(N)=N/c1nc(C)cc(C)n1	-0.23
CCOc1ccc(C2C(N3C(=O)c4ccc([N+](=O)[O-])cc4C3=O)C(=O)N2c2ccc(C)c(Cl)c2)cc1 (stereo not drawn)	-0.15
CCc1ccccc1NC(=O)c1ccc(F)c(S(=O)(=O)N2CCN(c3cccc(C)c3C)CC2)c1	0
COc1cccc(NC(=O)Nc2ccc3nsnc3c2)c1	0.18
Cc1cc([N+](=O)[O-])nn1CCCC(=O)Nc1cc(Oc2ccc(F)cc2)cc([N+](=O)[O-])c1	-0.33
CCN1CCCC1CNC(=O)c1cc2c(=O)[nH]c3ccccc3c2s1 (stereo not drawn)	-1.4
Cc1nc2c(C(=O)N3CCOCC3)c[nH]n2c(=O)c1Cc1ccc(Cl)cc1	-0.09
O=C(O)c1cc(-c2ccc(F)cc2)nc2ccccc12	-0.67
CCOc1ccc(-n2c(=O)c3c(C)c(C(=O)N(C)C)sc3n(Cc3cccc(F)c3)c2=O)cc1	-0.38
O=C(NCCN1CCN(C(=O)c2cc3ccccc3oc2=O)CC1)c1cc2ccccc2oc1=O	0.86
COc1ccc(C=Nc2ccc3nc(-c4ccccc4)[nH]c3c2)cc1OC	0.13
CCOC(=O)c1oc2ccc(S(=O)(=O)N3CCOCC3)cc2c1C	0.2
COc1ccc(-c2c(C(F)(F)F)oc3cc(OC(C)=O)ccc3c2=O)cc1OC	0.18
Cc1sc2nc3c(C(=O)NC(C)C)cccn3c(=O)c2c1C	1.2
O=C(NCc1ccco1)Nc1ccc2snnc2c1	0.67
COc1ccc(-c2n[nH]c3c2C(c2ccc(OC)c(OC)c2)N(c2ccc(Br)cc2)C3=O)cc1 (stereo not drawn)	-0.91
COc1ccc2nc3sc(C(=O)NCCCN4CCCC4=O)cc3cc2c1	-2
O=C(NCCN1CCNCC1)c1c(O)c2c([nH]c1=O)CCCC2	-0.48
CCOc1ccc(S(=O)(=O)Nc2ccc3oc(C)c(C(=O)OC)c3c2)cc1	-0.3
Cc1ccc2c(c1)C(c1ccccc1)N(C(=O)c1ccc(Br)o1)CC(=O)N2 (stereo not drawn)	1.7
